HNF4A DNA FP – change in binding of human HNF4 alpha to DNA; activity change, % at 10 µM; HNF4a-FITC DNA binding, fluorescence polarization, 1 h; 0.3% of 360,000 active; in the data active = activity change above about 30%, passing the limit was not always enough;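 note: controls were the assay level and a saturating level of protein; the project sought stronger binding though the title names inhibitors; some compounds called inactive have numbers as strong as hits; positive values seem to mean higher polarization but the record does not say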
Vif TR-FRET – inhibitors of Vif binding to APOBEC3G peptide, primary screen, biochemical, TR-FRET, GST-Vif 1-94, biotin-A3G peptide, dose response retest (AID 1117319); TR-FRET GST-Vif / biotin-A3G peptide binding; higher % means a stronger effect; test concentration not given here; strong numbers were not always called active; inhibition, %, or IC50 in µM where a hit was titrated; 0.57% of 260,000 active;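 active = above the screen mean plus three standard deviations and confirmed in dose response; inconclusive = results disagree or hit not tested in dose response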;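 note: Vif residues 1-94 fused to GST binding biotinylated APOBEC3G peptide 110-148; 0% = full assay without inhibitor and 100% = GST in place of GST-Vif; retest series ran down from 100 µM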
UCH37 inh – blocks the human deubiquitinase UCH37; Q9Y5K5; purified proteasome/UCH37, Ub-AMC cleavage fluorescence; inhibition, % (test concentration not listed); 0.33% of 330,000 active; AID 588478;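 active = mean of two replicates above 20%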;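 note: 0% = compound-free wells with enzyme and 100% = wells lacking proteasome; stock transfer was 100 nL into about 20 µL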
Target sequence (Q9Y5K5 whole entry, looked up): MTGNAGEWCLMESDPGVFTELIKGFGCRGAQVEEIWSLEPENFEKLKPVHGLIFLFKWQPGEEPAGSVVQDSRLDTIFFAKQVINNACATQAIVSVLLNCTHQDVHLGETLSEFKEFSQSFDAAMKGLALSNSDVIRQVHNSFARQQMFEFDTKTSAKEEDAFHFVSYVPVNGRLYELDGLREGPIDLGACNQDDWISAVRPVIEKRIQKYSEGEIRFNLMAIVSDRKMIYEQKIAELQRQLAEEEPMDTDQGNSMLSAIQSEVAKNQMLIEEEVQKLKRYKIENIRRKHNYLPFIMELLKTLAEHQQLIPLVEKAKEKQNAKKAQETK
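Material: Human UCH37 enzyme supplied as purified proteasome complex | Schedule: 30 min compound-proteasome preincubation then 25 min substrate reaction, room temperature | Detection: AMC fluorescence from Ub-AMC cleavage, excitation 355 nm, emission 460 nm | Benchmarks: Wells without proteasome as full block, compound-free enzyme plus substrate as uninhibited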
Ecoli growth – E. coli growth inhibition | Escherichia coli growth, OD600, 23 h; active compounds read low | OD600 absorbance (test concentration not listed) | 0.21% of 330,000 active;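 active = OD600 absorbance below the run mean of sample wells minus 3.6 SD, in any replicate, cut at about 0.56 in these data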;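 note: stock transfer was 300 nL into about 60 µL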
RanGTP-Impb inh – disruptors of Ran-importin-beta complex formation – biochemical, FRET, CFP-Ran, YFP-importin-beta, homogeneous, primary screen | cell-free CFP-Ran/YFP-importin-beta FRET ratio | AID 2216 | 1.1% of 300,000 active | inhibition, % (concentration not given with the values);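 active = most replicates above 15%; inconclusive = exactly half above 15%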;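 note: 0% = DMSO wells and 100% = Ran loaded with GDP instead of GTP; wells of about 40 µL received 100 nL stock; the first replicate is given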
AF4-AF9 inh – MLL-AF4/AF9 protein interaction inhibition; AlphaScreen, biotin-AF4 peptide binding to FLAG-AF9; inhibition, % at 10 µM; 0.47% of 350,000 active; AID 651704;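 active = every replicate reaching a set inhibition limit, whatever the replicate mean, cut at about 25% in these data; inconclusive = mean inhibition reaches that limit but some replicates miss it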;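 note: 0% = plate neutral control median and 100% = total signal loss; the record names both 10 and 1 µM as test concentration; the first replicate is given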
Target sequence (P42568 whole entry, looked up): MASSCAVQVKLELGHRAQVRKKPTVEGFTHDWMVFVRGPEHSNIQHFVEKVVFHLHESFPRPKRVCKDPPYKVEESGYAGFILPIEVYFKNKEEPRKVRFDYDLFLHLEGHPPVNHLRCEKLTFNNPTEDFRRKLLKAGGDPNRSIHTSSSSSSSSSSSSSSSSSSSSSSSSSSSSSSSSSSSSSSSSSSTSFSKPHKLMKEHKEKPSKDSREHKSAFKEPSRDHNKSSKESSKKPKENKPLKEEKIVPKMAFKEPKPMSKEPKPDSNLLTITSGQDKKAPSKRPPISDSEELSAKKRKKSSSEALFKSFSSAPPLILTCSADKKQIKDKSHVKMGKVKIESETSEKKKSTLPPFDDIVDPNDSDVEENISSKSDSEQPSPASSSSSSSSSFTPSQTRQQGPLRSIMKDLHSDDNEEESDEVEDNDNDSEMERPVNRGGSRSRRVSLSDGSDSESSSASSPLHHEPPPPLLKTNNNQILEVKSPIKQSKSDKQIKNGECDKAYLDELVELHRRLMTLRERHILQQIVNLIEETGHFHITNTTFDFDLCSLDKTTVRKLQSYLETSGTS
FGF22 binding – shifts melting point of recombinant human FGF22; Q9HCT0; AID 651658; calls only at 9.99 µM; recombinant FGF22 thermal shift, SYPRO orange fluorescence; percent of sucrose octasulfate shift, DMSO zero; 1.5% of 340,000 active;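 active = melting point raised past a set limit in the mean and every replicate; inconclusive = no clear call; three in four hits are not shown here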
Target sequence (Q9HCT0 whole entry, looked up): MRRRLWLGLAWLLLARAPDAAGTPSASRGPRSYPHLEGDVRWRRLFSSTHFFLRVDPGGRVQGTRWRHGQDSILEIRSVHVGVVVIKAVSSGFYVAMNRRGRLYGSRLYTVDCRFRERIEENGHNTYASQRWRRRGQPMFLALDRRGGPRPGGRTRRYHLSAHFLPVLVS
The depositor's hits bear a star; i = inactive; ? = inconclusive; . = no result given; & = joins results of further samples. The list is partial (hit frequency here may not be typical).

Structure,HNF4A DNA FP,Vif TR-FRET,UCH37 inh,Ecoli growth,RanGTP-Impb inh,AF4-AF9 inh,FGF22 binding
Cc1cc(Nc2ccccc2)n(CCC#N)n1,-2.0,-0.2%,-1.2,0.741,64.2*,.,.
COc1cc(CN2CCC(n3nccc3NC(=O)CCCc3ccccc3)CC2)ccc1O,1.0,.,5.0,0.679,-1.5,7.7,i
O=C(CCSc1nc(-c2ccco2)cc(C(F)(F)F)n1)N1CCN(c2ccccc2)CC1,4.3,21.2%,4.4,0.817,-3.0,.,.
Cc1cc2c(cc1S(=O)(=O)N1CCN(c3ccccc3F)CC1)OCC(=O)N2,-1.4,.,0.4,0.696,3.4,-1.8,i
COc1ccc(NC(=O)c2c(C)nn(Cc3ccccc3)c2Cl)cc1S(=O)(=O)N1CCOCC1,0.4,3.7%,-1.8,0.69,4.0,-1.1,i
Cc1ccc([C@H]2C[C@@H](O)[C@H](n3cc(-c4ccc(F)cc4)nn3)CN2Cc2cccs2)cc1,-2.5,.,.,.,.,-2.6,i
O=C(O)CCC(=O)Nc1ccccc1C(=O)NC1CCCCC1,0.1,?,-1.2,0.732,3.5,.,.
COc1ccc(/C=N/NC(=O)c2cccc(NC(C)=O)c2)c(C(=O)O)c1OC,2.5,16.8%,.,.,-1.6,-1.2,i
CCOC(=O)CC1C(=O)NCCN1S(=O)(=O)c1ccccc1 (stereo not given),0.7,-5.1%,0.8,0.688,-0.2,0.8,i
O=C(COC(=O)c1cccc(-n2cnnn2)c1)c1ccc(F)c(F)c1,1.5,-1.6%,.,.,.,-10.2,i
Cc1nn2c(C)c(C(=O)Nc3ccccc3)cnc2c1C#N,-0.9,-1.3%,-4.0,0.629,1.0,-41.2,i
COc1ccc(C(=O)N2CCN=C2SC)cc1,-0.6,2.9%,-0.4,0.696,-2.8,-3.8,i
O=C(COc1ccc(Cl)cc1Cl)NC(=S)Nc1ccc(CN2CCOCC2)cc1,4.5,2.6%,4.3,0.689,1.6,.,i
Cc1ccc(Cn2ncc3c(N4CCN(C5CCCC5)CC4)ncnc32)cc1,4.6,.,6.1,0.71,2.7,0.0,i
CC1(c2ccc(Cl)cc2Cl)NC(=O)N(CC(=O)NC2CCCCC2)C1=O (stereo not given),3.0,.,-0.5,0.649,.,2.2,i
CCOC(=O)C1(C)NC(c2cccc(C)c2)C2C(=O)N(c3ccccc3)C(=O)C21 (stereo not given),-1.8,0.1%,0.3,0.661,2.4,2.1,i
CSc1ccccc1NC(=O)CN(C)C(=O)CNC(=O)c1ccc(Oc2ccccc2)cc1,-1.1,-4.4%,.,.,.,-3.7,i
COP(=O)(OC)c1nc(-c2cccc3ccccc23)oc1NCc1ccccc1,-3.5,-4.6%,i,0.693,7.4,.,.
COc1ccc(CCC(=O)Nc2nc3ccccc3[nH]2)cc1OC,-2.7,6.1%,3.3,0.806,5.0,.,.
O=C(NCc1ccc2c(c1)OCO2)C1CCCN1C(=O)Nc1ccccc1 (stereo not given),2.0,81.1%,6.3,0.694,-0.8,-2.3,i
COc1cccc(CNC(=O)CN(C)S(=O)(=O)c2ccc3c(c2)c(=O)n(C)c(=O)n3C)c1,2.3,.,-0.2,0.773,3.6,-3.4,i
Cc1cccc(Cn2c(N3CCN(C)CC3)nc3c2c(=O)n(C)c(=O)n3C)c1,-4.4,.,1.1,0.664,1.8,-22.7,i
CC1CC(C)CN(Cc2nc3c(c(=O)n(C)c(=O)n3C)n2CCN2CCOCC2)C1 (stereo not given),1.0,3.2%,-2.1,0.682,5.2,.,.
C[C@H](CO)N1C[C@H](C)[C@@H](CN(C)C(=O)c2cccnc2)Oc2ncc(Br)cc2C1=O,-0.8,.,.,.,.,-1.1&1.4&1.1,i
OCC(O)CSc1nc(-c2ccccc2)nc2c1CCC2 (stereo not given),6.5,.,1.4,0.715,-1.6,-3.0,i
COCCNC(=S)Nc1ccc2[nH]c(=O)[nH]c2c1,-2.8,8.9%,3.8,0.696,1.6,-64.8,i
O=C(COc1ccc(-c2ccccc2)cc1)N/N=C/c1cc(O)ccc1Br,-0.9,.,.,.,0.4,5.7,i
C/C(=N\Nc1ccc(C#N)cc1[N+](=O)[O-])c1ccc(O)cc1,1.2,15.4%,.,.,6.5,-0.8,i
Cc1c(C(=O)O)[nH]c2c1C(=O)CC(c1ccc(Cl)cc1)C2 (stereo not given),1.3,15.2%,3.6,0.711,0.6,-0.6,i
O=C(C1CC(=O)N(c2ccc(Cl)cc2)C1)N1CCN(Cc2ccc3c(c2)OCO3)CC1 (stereo not given),-1.6,.,-0.4,0.645,1.0,2.9,i
O=C1c2cccc3cccc(c23)C(=O)N1OS(=O)(=O)c1ccc(Br)cc1,-2.3,.,.,.,0.4,-0.2,i
COc1ccc(-c2nc(CN3CCC(C(=O)N4CCOCC4)CC3)c(C)o2)c(OC)c1,5.6,5.8%,-2.3,0.68,7.3,2.3,i
COc1ccc(Cl)cc1NC(=O)CN(C)CC(=O)Nc1c(C)n(C)n(-c2ccccc2)c1=O,0.3,.,1.5,0.661,.,-5.9,i
OC(CNCc1ccncc1)c1ccccc1 (stereo not given),1.4,-4.1%,-2.0,0.67,1.6,0.6,i
O=C(COc1ccc(Cl)cc1Cl)N/N=C/CCc1ccccc1,-1.5,2.7%,.,.,4.1,.,.
CCc1nc2nc(C)c(NS(=O)(=O)c3ccc(Cl)s3)c(=O)n2[nH]1,1.2,.,4.0,0.679,0.0,-4.5,i
CCOc1ccc(S(=O)(=O)N(CC(=O)Nc2cccnc2)c2ccc(F)cc2)cc1,1.3,.,1.3,0.732,0.3,-0.3,i
COc1ccc(O)c(C(=O)c2cnn(-c3ccccc3)c2)c1,2.0,.,-3.2,0.701,1.4,3.8,i
Cc1ccc(C(=O)N/C(=C/c2cccs2)C(=O)NCCCn2ccnc2)cc1,-0.8,.,3.4,0.694,2.2,4.8,i
CCOC(=O)C1(Cc2ccccc2C)CCCN(C(=O)c2sccc2C)C1 (stereo not given),1.3,1.6%,4.6,0.719,2.5,0.5,i
CCc1nc(N)c(C#N)c(-c2cccnc2)c1C,0.0,-3.1%,-1.3,0.661,.,.,.
CCOC(=O)N1CCN(C(=O)c2ccc3c(c2)N(Cc2ccc(F)cc2)CCS3)CC1,-4.1,.,-60.5,0.707,0.0,-2.4,i
Cc1nccn1CC(O)COc1ccc(Cl)cc1Cl (stereo not given),-5.9,12.3%,.,.,-4.3,4.5,i
COc1ccc(NC(=O)CSc2nnc(Cc3cccs3)n2C)cc1,-1.9,-0.4%,0.1,0.631,?,1.1,i
Cc1cc(C)c2c(c1)cc(C)c1nnc(SCC(=O)Nc3ccccc3N3CCOCC3)n12,0.8,.,3.5,0.711,1.2,.,.

2 entries from above, field by field.
Compound: COc1cccc(CNC(=O)CN(C)S(=O)(=O)c2ccc3c(c2)c(=O)n(C)c(=O)n3C)c1
  HNF4A DNA FP: 2.3	Vif TR-FRET: .	UCH37 inh: -0.2	Ecoli growth: 0.773	RanGTP-Impb inh: 3.6	AF4-AF9 inh: -3.4	FGF22 binding: i
Compound: COc1ccc(Cl)cc1NC(=O)CN(C)CC(=O)Nc1c(C)n(C)n(-c2ccccc2)c1=O
  HNF4A DNA FP: 0.3	Vif TR-FRET: .	UCH37 inh: 1.5	Ecoli growth: 0.661	RanGTP-Impb inh: .	AF4-AF9 inh: -5.9	FGF22 binding: i

Further results:
Structure,HNF4A DNA FP,Vif TR-FRET,UCH37 inh,Ecoli growth,RanGTP-Impb inh,AF4-AF9 inh,FGF22 binding
Cc1ccc(CC2SC(N=C(N)N)=NC2=O)cc1 (stereo not given),7.2,0.3%,0.1,0.682,2.3,-1.6,i
CCCCc1nnc(NC(=O)CSc2nc(O)c(Cc3ccccc3)c(=O)[nH]2)s1,0.4,0.5%,.,.,7.5,-1.9,i
CCCCNC(=S)N/N=C/c1ccc(C#N)cc1,3.8,-0.4%,.,.,-1.6,-1.3,i
CCN1C(=O)CC(N2CCN(CC(=O)NC(C)C)CC2)C1=O (stereo not given),3.7,5.5%,1.2,0.683,-0.9,.,.
Cc1ccc(-c2noc(CCCC(=O)NC3CCCCC3)n2)cc1,1.5,.,0.7,0.648,1.1,-1.7,.
COc1ccc(CNC(=O)C2CCCN(S(=O)(=O)c3ccc4c(c3)C(C)(C)C(=O)N4C)C2)cc1 (stereo not given),2.8,.,6.9,0.709,0.8,-14.5,i
COc1ccccc1Nc1nc(-c2ccc([N+](=O)[O-])cc2)nc2ccccc12,5.7,-0.1%,3.5,0.797,-2.9,.,.
CN(Cc1c(F)cccc1Cl)c1nnnn1-c1ccccc1,-1.2,-3.0%,0.3,0.699,6.3,.,.
CCOCCn1ccc2c(OCC(=O)Nc3ccccc3F)cccc2c1=O,-2.8,.,.,.,7.9,-8.8,i
CN(CCC(=O)Nc1ccc2c(c1)OCO2)Cc1ccccc1,0.0,-0.7%,5.3,0.711,-3.7,.,.
CC1CN=C(N(C(=S)Nc2ccccc2)c2cccc(C(F)(F)F)c2)S1 (stereo not given),0.9,1.3%,.,.,1.1,-2.9,i
CCCCC(NC(=O)COc1cc2c(c3oc(=O)cc(C)c13)CCC(C)(C)O2)C(=O)O (stereo not given),-2.9,1.1%,i,0.677,-2.6,-27.5,i
CC(=O)CC(CC(=O)NC1CCCCC1)c1ccccc1 (stereo not given),0.6,.,3.7,0.634,-0.4,.,i
CC1CCC2(CC1)NC(=O)N(Cc1nnc(-c3cccs3)o1)C2=O (stereo not given),1.0,.,3.6,0.704,0.2,-20.4,i
CCC1CSC(Nc2ccc(C(=O)/C=C/c3ccc(Oc4ccccc4)cc3)cc2)=N1 (stereo not given),5.0,20.1%,5.8,0.723,3.0,.,.
CCCc1cc(C(=O)Nc2nnc(C)s2)cs1,3.5,5.0%,4.4,0.677,?,.,.
COc1ccc(-c2csc(C(C)(O)c3ccncc3)n2)cc1OC (stereo not given),1.6,.,.,.,.,-1.9,i
CN(C)CCCN=c1cc(-c2ccccc2)oc2ccc(Cl)cc12,-12.8,.,2.2,0.679,.,10.0,i
CC(C)c1ccc(NC2CCCN(C(=O)c3cccc4nccnc34)C2)cc1 (stereo not given),0.1,.,0.6,0.684,1.2,4.1,i
c1ccc2c(CSCCc3ccncc3)cccc2c1,4.5,-5.3%,-0.6,0.729,2.8,.,.
CC1(C)N=C(N)N=C(N)N1c1cccc(C(=O)O)c1,-1.1,?,2.7,0.691,2.9,.,.
O=C(c1ccc(Cl)cc1)C1CCN(CC(=O)N2CCCCC2)CC1,-1.6,.,1.2,0.664,2.5,0.6,i
Cc1ccc(-n2c(C)nnc2SC(C)C(=O)N2CCCC2)cc1 (stereo not given),-3.9,.,3.9,0.709,0.4,1.3,i
Nc1cc2c(cc1Br)-c1ccccc1C2=NO,8.1,8.5%,.,.,.,-0.2,i
O=C(NC(=S)Nc1ccc(S(=O)(=O)Nc2ncccn2)cc1)c1cccc(Br)c1,-2.3,-1.1%,3.1,0.664,-6.1,-2.0,i
COc1cccc(-c2cc(C(F)(F)F)nc(N3CCCCC3)n2)c1,0.7,1.0%,-39.7,0.696,0.2,.,.
Cc1ccc(C(=O)NCCNS(=O)(=O)c2ccccc2[N+](=O)[O-])cc1,-0.2,.,1.9,0.717,5.0,3.5,i
COc1ccccc1OCCOc1ccc(/C=N/n2cnnc2)cc1,-1.2,-0.7%,.,.,5.8,.,.
CSC1=NC2C(N1)N(C)C(=O)N2C (stereo not given),-0.3,-6.8%,0.5,0.748,-19.0,.,.
O=C(Nc1cccnc1)c1ccccc1F,-1.9,-2.4%,1.1,0.739,-1.2,.,.
Cc1ccc(SCC(=O)Nc2cccc(-c3nnc(-c4ccco4)o3)c2)cc1,1.3,-0.2%,2.3,0.7,1.9,.,.

High-throughput results deposited in PubChem BioAssay by several laboratories.
